Screening data from PubChem.
Ran importin: inhibitors of Ran–importin-beta complex formation, primary screen, biochemical, CFP-Ran/YFP-importin-beta FRET, RCC1, cell-free (AID 434961). inhibition, %. CFP-Ran/YFP-importin-beta FRET, cell-free; active compounds read high. 7,700 tested, 0.2% active. Regulator of chromosome condensation (Homo sapiens) + GTP-binding nuclear protein Ran …;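 active = more than half of the replicate wells above 15% inhibition; inconclusive = exactly half above it; inactive = fewer than half above it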;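 note: 0% = DMSO wells and 100% inhibition = RanGDP control wells on each plate; stock of unstated strength diluted about 400-fold; mean of two wells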
* marks the source's active call; other numbers are inactive results. An excerpt; rates above refer to the full screens.

`C[C@H](CO)N1C[C@H](C)[C@@H](CN(C)C(=O)c2ccccc2)OCCCC[C@H](C)Oc2ccc(NS(C)(=O)=O)cc2C1=O` gave Ran importin -2.6.
Cc1noc(C)c1S(=O)(=O)Nc1cccc2c1O[C@@H](CN(C)Cc1ccc3c(c1)OCO3)[C@@H](C)CN([C@@H](C)CO)C2=O was read as Ran importin 1.9.
CNC[C@H]1Oc2c(NC(=O)C3CCOCC3)cccc2C(=O)N([C@@H](C)CO)C[C@H]1C was read as Ran importin -2.6.
For C[C@@H]1CCCCO[C@@H](CN(C)Cc2ccccc2)[C@@H](C)CN([C@H](C)CO)C(=O)c2cc(NC(=O)CCCN(C)C)ccc2O1 the results were Ran importin -0.9.
CNC[C@@H]1Oc2ccc(NC(=O)Nc3ccc(OC)cc3)cc2C(=O)N([C@H](C)CO)C[C@H]1C was read as Ran importin 3.3.
`CC(C)NC(=O)N(C)C[C@@H]1OCCCC[C@@H](C)Oc2ccc(NC(=O)Nc3ccc(F)cc3)cc2C(=O)N([C@@H](C)CO)C[C@H]1C` gave Ran importin 5.7.
`C[C@@H]1CN([C@H](C)CO)C(=O)c2cc(NC(=O)c3ccccc3)ccc2O[C@@H](C)CCCCO[C@H]1CN(C)S(=O)(=O)c1cn(C)cn1` gave Ran importin 6.6.
COc1ccc(NC(=O)Nc2ccc3c(c2)C(=O)N([C@H](C)CO)C[C@@H](C)[C@@H](CN(C)S(=O)(=O)c2cccs2)O3)cc1 was read as Ran importin -6.0.
For CC(C)NC(=O)Nc1ccc2c(c1)C(=O)N([C@H](C)CO)C[C@@H](C)[C@@H](CN(C)C(=O)Nc1ccccc1)OCCCC[C@@H](C)O2 the results were Ran importin -2.0.
For CNC[C@@H]1Oc2c(NC(=O)Nc3ccc(C(F)(F)F)cc3)cccc2C(=O)N([C@@H](C)CO)C[C@@H]1C the results were Ran importin -0.6.
For CC(C)NC(=O)N(C)C[C@H]1OCCCC[C@H](C)Oc2ccc(NC(=O)CCCN(C)C)cc2C(=O)N([C@H](C)CO)C[C@@H]1C the results were Ran importin -1.5.
Screening CNC[C@H]1Oc2ccc(NC(=O)Nc3ccc4c(c3)OCO4)cc2C(=O)N([C@H](C)CO)C[C@@H]1C returned Ran importin 7.0.
Screening C[C@H](CO)N1C[C@H](C)[C@@H](CN(C)Cc2ccncc2)Oc2ccc(NC(=O)Nc3ccc(F)cc3)cc2C1=O returned Ran importin inconclusive.
For Cc1noc(C)c1S(=O)(=O)Nc1ccc2c(c1)C(=O)N([C@@H](C)CO)C[C@H](C)[C@H](CN(C)C(=O)CCC(F)(F)F)OCCCC[C@H](C)O2 the results were Ran importin 3.3.
For COc1ccc(CN(C)C[C@@H]2Oc3c(NS(=O)(=O)c4cccs4)cccc3C(=O)N([C@@H](C)CO)C[C@@H]2C)cc1 the results were Ran importin -4.7.
For COc1ccc(S(=O)(=O)N(C)C[C@@H]2Oc3ccc(NC(=O)Nc4ccc(C(F)(F)F)cc4)cc3CC(=O)N([C@@H](C)CO)C[C@@H]2C)cc1 the results were Ran importin 0.4.
Screening CC(C)NC(=O)Nc1ccc2c(c1)CC(=O)N([C@@H](C)CO)C[C@H](C)[C@H](CN(C)Cc1ccc(-c3ccccc3)cc1)O2 returned Ran importin -2.0.
Screening C[C@H](CO)N1C[C@H](C)[C@H](CN(C)S(=O)(=O)c2cn(C)cn2)Oc2ccc(NC(=O)C3CC3)cc2CC1=O returned Ran importin 0.5.
C[C@@H]1CN([C@@H](C)CO)C(=O)c2cccc(NC(=O)c3ccc(-c4nccs4)cc3)c2O[C@@H]1CN(C)C(=O)NC1CCCCC1 was read as Ran importin -2.4.
`C[C@H](CO)N1C[C@H](C)[C@@H](CN(C)C(=O)Nc2ccc(F)cc2)Oc2ccc(NC(=O)C3CC3)cc2CC1=O` gave Ran importin -3.6.
For Cc1noc(C)c1S(=O)(=O)Nc1ccc2c(c1)C(=O)N([C@@H](C)CO)C[C@@H](C)[C@H](CN(C)C(=O)NC(C)C)OCCCC[C@@H](C)O2 the results were Ran importin 8.9.
C[C@@H]1CN([C@H](C)CO)C(=O)CCCn2cc(nn2)CO[C@@H]1CN(C)C(=O)Nc1ccccc1C(F)(F)F was read as Ran importin 2.7.
For C[C@@H]1CN([C@@H](C)CO)C(=O)c2cccc(NC(=O)Nc3ccccc3)c2O[C@H]1CN(C)C the results were Ran importin -0.9.
`Cc1noc(C)c1NC(=O)Nc1ccc2c(c1)CC(=O)N([C@H](C)CO)C[C@H](C)[C@H](CN(C)S(=O)(=O)c1cn(C)cn1)O2` gave Ran importin -0.9.
For COc1ccc(C#Cc2cnc3c(c2)C(=O)N([C@H](C)CO)C[C@H](C)[C@H](CN(C)S(=O)(=O)c2cn(C)cn2)O3)cc1OC the results were Ran importin 2.0.
C[C@@H]1CCCCO[C@@H](CN(C)Cc2ccccc2)[C@H](C)CN([C@@H](C)CO)C(=O)c2cc(N(C)C)ccc2O1 was read as Ran importin -3.0.
C[C@@H]1CN([C@H](C)CO)C(=O)c2cccc(NS(=O)(=O)c3ccccc3)c2O[C@H]1CN(C)C(=O)Nc1ccc(C(F)(F)F)cc1 was read as Ran importin 10.0.
`C[C@H](CO)N1C[C@H](C)[C@H](CN(C)C)Oc2ccc(NC(=O)CCN3CCOCC3)cc2CC1=O` gave Ran importin 0.1.
For C[C@@H]1CCCCO[C@@H](CN(C)C(=O)Cc2ccccc2)[C@H](C)CN([C@@H](C)CO)C(=O)c2cc(NC(=O)Nc3ccccc3)ccc2O1 the results were Ran importin 4.0.
Screening C[C@H]1CN([C@@H](C)CO)C(=O)c2cccc(NC(=O)C3CCOCC3)c2O[C@@H]1CN(C)Cc1ccc(C(=O)O)cc1 returned Ran importin -2.0.
`C[C@@H]1CN([C@H](C)CO)C(=O)c2cccc(NS(=O)(=O)c3ccc(F)cc3)c2O[C@@H]1CN(C)C(=O)NC1CCCCC1` gave Ran importin -1.8.
For CC(C)NC(=O)N(C)C[C@@H]1Oc2ccc(NC(=O)CCC(F)(F)F)cc2CC(=O)N([C@@H](C)CO)C[C@H]1C the results were Ran importin inconclusive.
For C[C@H](CO)N1C[C@H](C)[C@H](CN(C)S(=O)(=O)c2ccc3ccccc3c2)OCc2cnnn2CCCC1=O the results were Ran importin 1.0.
COc1ccc(S(=O)(=O)N(C)C[C@H]2Oc3c(NC(=O)c4ccncc4)cccc3C(=O)N([C@H](C)CO)C[C@@H]2C)cc1 was read as Ran importin 3.5.
`C[C@@H]1CN([C@H](C)CO)C(=O)c2cccc(NC(=O)c3ccc(-c4nccs4)cc3)c2O[C@H]1CN(C)CC1CC1` gave Ran importin -3.3.
`C[C@H]1CN([C@@H](C)CO)C(=O)c2cc(NS(=O)(=O)c3cn(C)cn3)ccc2O[C@@H]1CN(C)C(=O)Nc1ccc(F)cc1` gave Ran importin -1.1.
`C[C@@H]1CN([C@H](C)CO)C(=O)c2cccc(NC(=O)NC3CCCCC3)c2O[C@@H]1CN(C)Cc1ccc(C(=O)O)cc1` gave Ran importin 4.4.
Screening C[C@@H]1CN([C@@H](C)CO)C(=O)Cc2cc(NC(=O)CCN3CCOCC3)ccc2O[C@@H]1CN(C)Cc1ccc(-c2ccccc2)cc1 returned Ran importin -1.1.
`Cc1noc(C)c1NC(=O)Nc1cccc2c1O[C@@H](CN(C)Cc1ccncc1)[C@H](C)CN([C@@H](C)CO)C2=O` gave Ran importin 1.1.
`CNC[C@@H]1Oc2c(NC(=O)c3cc(C)nn3C)cccc2C(=O)N([C@@H](C)CO)C[C@@H]1C` gave Ran importin -5.4.
For COc1ccc(NC(=O)Nc2ccc3c(c2)C(=O)N([C@H](C)CO)C[C@H](C)[C@@H](CN(C)S(=O)(=O)c2ccc(OC)cc2)O3)cc1 the results were Ran importin -3.6.
Screening C[C@@H]1CN([C@H](C)CO)C(=O)c2cccc(NC(=O)Nc3ccc(F)cc3)c2O[C@H]1CN(C)Cc1ccc(C(F)(F)F)cc1 returned Ran importin 0.4.
C[C@@H]1CN([C@@H](C)CO)C(=O)CCCn2nncc2CO[C@H]1CN(C)C(=O)Nc1ccccc1F was read as Ran importin 1.3.
`C[C@@H]1CCCCO[C@H](CN(C)C(=O)CCC(F)(F)F)[C@H](C)CN([C@@H](C)CO)C(=O)c2cc(NC(=O)Nc3ccc4c(c3)OCO4)ccc2O1` gave Ran importin 3.1.
C[C@@H]1CN([C@H](C)CO)C(=O)Cc2cc(N(C)C)ccc2O[C@H]1CN(C)C(=O)Nc1cccc2ccccc12 was read as Ran importin inconclusive.
`C[C@H]1CCCCO[C@@H](CN(C)C)[C@@H](C)CN([C@@H](C)CO)C(=O)c2cc(NC(=O)CCCN(C)C)ccc2O1` gave Ran importin -0.3.
C[C@H](CO)N1C[C@H](C)[C@H](CN(C)C(=O)Nc2ccc3c(c2)OCO3)Oc2ccc(NC(=O)Nc3ccc4c(c3)OCO4)cc2C1=O was read as Ran importin 0.2.
`C[C@@H]1CCCCO[C@H](CN(C)C(=O)Nc2ccccc2)[C@H](C)CN([C@H](C)CO)C(=O)c2cc(NC(=O)Cc3ccccc3)ccc2O1` gave Ran importin 1.1.

6 structures out of the list, sorted by molecular weight, lowest first:
`CNC[C@@H]1Oc2c(NC(=O)c3cc(C)nn3C)cccc2C(=O)N([C@@H](C)CO)C[C@@H]1C` gave Ran importin -5.4.
`C[C@H]1CCCCO[C@@H](CN(C)C)[C@@H](C)CN([C@@H](C)CO)C(=O)c2cc(NC(=O)CCCN(C)C)ccc2O1` gave Ran importin -0.3.
`Cc1noc(C)c1NC(=O)Nc1cccc2c1O[C@@H](CN(C)Cc1ccncc1)[C@H](C)CN([C@@H](C)CO)C2=O` gave Ran importin 1.1.
`C[C@@H]1CN([C@H](C)CO)C(=O)c2cccc(NC(=O)NC3CCCCC3)c2O[C@@H]1CN(C)Cc1ccc(C(=O)O)cc1` gave Ran importin 4.4.
C[C@H](CO)N1C[C@H](C)[C@H](CN(C)C(=O)Nc2ccc3c(c2)OCO3)Oc2ccc(NC(=O)Nc3ccc4c(c3)OCO4)cc2C1=O was read as Ran importin 0.2.
`C[C@@H]1CCCCO[C@H](CN(C)C(=O)CCC(F)(F)F)[C@H](C)CN([C@@H](C)CO)C(=O)c2cc(NC(=O)Nc3ccc4c(c3)OCO4)ccc2O1` gave Ran importin 3.1.

Other structures:
Screening C[C@H](CO)N1C[C@H](C)[C@@H](CN(C)C(=O)Nc2ccc3c(c2)OCO3)Oc2ccc(N(C)C)cc2C1=O returned Ran importin -2.0.
`C[C@H](CO)N1C[C@H](C)[C@H](CN(C)Cc2ccncc2)Oc2ccc(NC(=O)Nc3ccc4c(c3)OCO4)cc2C1=O` gave Ran importin 1.9.
`C[C@@H]1CCCCO[C@@H](CN(C)C(=O)Nc2ccc3c(c2)OCO3)[C@@H](C)CN([C@H](C)CO)C(=O)c2cc(NS(C)(=O)=O)ccc2O1` gave Ran importin -0.3.
Screening CNC[C@@H]1OCCCC[C@@H](C)Oc2ccc(NC(=O)c3ccncc3)cc2C(=O)N([C@H](C)CO)C[C@H]1C returned Ran importin 1.7.
Screening CNC[C@H]1Oc2c(NC(=O)Nc3ccccc3)cccc2C(=O)N([C@H](C)CO)C[C@H]1C returned Ran importin 0.2.
Screening Cc1cccc(CN(C)C[C@@H]2Oc3ncc(-c4ccccc4)cc3C(=O)N([C@H](C)CO)C[C@@H]2C)c1 returned Ran importin -2.0.
C[C@@H]1CN([C@@H](C)CO)C(=O)c2cc(NC(=O)Cc3cn(C)c4ccccc34)ccc2O[C@@H]1CN(C)C(=O)Nc1ccccc1 was read as Ran importin inconclusive.
`C[C@H]1CCCCO[C@H](CN(C)C)[C@@H](C)CN([C@@H](C)CO)C(=O)c2cc(NC(=O)Nc3ccc(C(F)(F)F)cc3)ccc2O1` gave Ran importin -0.9.
Screening C[C@@H]1CCCCO[C@@H](CN(C)Cc2ccccc2)[C@@H](C)CN([C@@H](C)CO)C(=O)c2cc(NC(=O)CCCN(C)C)ccc2O1 returned Ran importin 0.3.
Screening COc1ccccc1NC(=O)N(C)C[C@H]1OCc2cn(nn2)CCCC(=O)N([C@H](C)CO)C[C@H]1C returned Ran importin -2.5.
`Cc1noc(C)c1S(=O)(=O)N(C)C[C@@H]1Oc2ccc(NC(=O)Nc3ccccc3)cc2C(=O)N([C@@H](C)CO)C[C@@H]1C` gave Ran importin 2.4.
`C[C@@H]1CN([C@H](C)CO)C(=O)c2cccc(NC(=O)C3CCOCC3)c2O[C@@H]1CN(C)S(=O)(=O)c1cccs1` gave Ran importin -2.3.
C[C@@H]1CN([C@@H](C)CO)C(=O)c2cccc(NC(=O)c3nc4ccccc4s3)c2O[C@@H]1CN(C)C(=O)NC1CCCCC1 was read as Ran importin -0.4.
`Cc1noc(C)c1NC(=O)Nc1cccc2c1O[C@H](CN(C)S(=O)(=O)c1cccs1)[C@H](C)CN([C@@H](C)CO)C2=O` gave Ran importin -1.7.
`C[C@H](CO)N1C[C@H](C)[C@H](CN(C)S(=O)(=O)c2cccs2)Oc2ncc(-c3ccccc3)cc2C1=O` gave Ran importin 4.0.
C[C@@H]1CN([C@@H](C)CO)C(=O)CCCn2cc(nn2)CO[C@H]1CN(C)Cc1ccncc1 was read as Ran importin -2.9.
`C[C@@H]1CN([C@@H](C)CO)C(=O)c2cc(NC(=O)Nc3ccc4c(c3)OCO4)ccc2O[C@@H]1CN(C)S(=O)(=O)c1cccs1` gave Ran importin -2.0.
`C[C@H]1CN([C@@H](C)CO)C(=O)Cc2cc(NS(=O)(=O)c3ccccc3)ccc2O[C@@H]1CN(C)C(=O)Nc1cccc2ccccc12` gave Ran importin -0.6.
